UCH37 inh: inhibitors of human UCH37 deubiquitinase, primary screen, biochemical, Ub-AMC cleavage, fluorescence | Ubiquitin carboxyl-terminal hydrolase isozyme L5 (Homo sapiens), Q9Y5K5 | purified proteasome/UCH37 | inhibition, % (concentration not given with the values) | 0.33% of 330,000 active | AID 588478, 2011;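 active = mean of two replicates above 20%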;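 also: 0% = compound-free wells with enzyme and 100% = wells lacking proteasome; stock transfer was 100 nL into about 20 µL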
Target sequence (Q9Y5K5 whole entry, looked up): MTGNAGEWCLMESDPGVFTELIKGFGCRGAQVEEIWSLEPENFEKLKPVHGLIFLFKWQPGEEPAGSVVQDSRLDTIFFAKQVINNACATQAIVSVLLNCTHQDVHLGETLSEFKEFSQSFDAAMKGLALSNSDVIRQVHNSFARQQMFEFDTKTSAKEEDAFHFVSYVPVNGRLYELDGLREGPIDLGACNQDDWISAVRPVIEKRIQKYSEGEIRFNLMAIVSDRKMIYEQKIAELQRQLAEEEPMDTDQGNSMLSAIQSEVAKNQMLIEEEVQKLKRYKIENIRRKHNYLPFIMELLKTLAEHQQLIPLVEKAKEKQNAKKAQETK
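Material: human UCH37 enzyme supplied as purified proteasome complex. Measure: % inhibition of Ub-AMC cleavage fluorescence. Medium: pH 7.4 Tris-HCl (50 mM) with ovalbumin, ATP-MgCl2, DTT. Times: 30 min preincubation with enzyme, 25 min cleavage at room temperature. Detection: AMC fluorescence intensity at 355/460 nm.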
Ecoli growth: E. coli growth inhibition, primary screen, OD600. 0.21% of 330,000 active. AID 1053175, 2014. OD600 absorbance (concentration not given with the values). Escherichia coli growth, 23 h; stronger effect = lower value;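 active = OD600 absorbance below the run mean of sample wells minus 3.6 SD, in any replicate, cut at about 0.56 in these data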;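 also: stock transfer was 300 nL into about 60 µL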
Beta cell apopt: inhibitors of cytokine-induced beta cell apoptosis, primary screen, luminescence; INS-1E cytokine-induced death, ATP luminescence, 48 h; percent of positive-control rescue, neutral wells zero; protection from apoptosis, % (no concentration beside the values); 0.8% of 300,000 active; AID 435005, 2010;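 active = all replicates at 75% or more, or half of them and the mean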;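 also: 0% = cytokine-treated negative control wells and 100% = positive control rescue; higher means more ATP so stronger rescue from cytokine killing; wells of about 40 µL received 100 nL stock; the first replicate is given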
FGF22 binding: binders of human FGF22 protein, primary screen, FGF22 synaptogenesis inhibitor project, biophysical, thermal shift, single point | Fibroblast growth factor 22 (Homo sapiens), Q9HCT0 | calls only at 9.99 µM | 1.5% of 340,000 active | recombinant FGF22 thermal shift, SYPRO orange fluorescence; percent of sucrose octasulfate shift, DMSO zero;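 active = melting point raised past a set limit in the mean and every replicate; three in four hits are not shown here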
Target sequence (Q9HCT0 whole entry, looked up): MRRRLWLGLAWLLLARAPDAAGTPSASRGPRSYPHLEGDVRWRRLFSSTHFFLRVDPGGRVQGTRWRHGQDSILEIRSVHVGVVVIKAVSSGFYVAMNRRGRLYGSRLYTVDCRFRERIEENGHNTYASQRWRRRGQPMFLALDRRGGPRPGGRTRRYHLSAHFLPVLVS
rRNA inh HTS: reduced GFP signal of wild-type E. coli, primary screen, bacterial rRNA inhibitor project, GFP/RFP fluorescence, OD600, single point. E. coli WT GFP vs humanized-ribosome RFP mutants, 24 h; stronger effect = lower value; DMSO median 0, no signal -100. GFP signal change (wild-type ribosome), % (no concentration beside the values). 1.6% of 350,000 active;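 active = significant combined selectivity score with lowered wild-type GFP, culture density cut under 30%, mutant RFP and density less affected; inactive = any of these conditions unmet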; also: one replicate is shown; some compounds called inactive have numbers as strong as hits
T cruzi inh: inhibitors of intracellular T. cruzi growth, primary screen, luminescence, NIH3T3 host cells | T. cruzi beta-gal in NIH3T3, 90 h | inhibition, % (test concentration not listed) | 1.4% of 300,000 active;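 active = mean inhibition across valid replicates above about 55%, limit read from the data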;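 also: signal also drops with host cell toxicity which is not excluded here; 0% = plate median of DMSO wells and 100% = zero luminescence signal; higher percent means less beta-gal luminescence so fewer parasites; stock transfer was 50 nL into about 50 µL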
MLL AF4-AF9 inh: inhibitors of AF4 peptide binding to AF9, primary screen, biochemical, AlphaScreen, biotin-AF4 peptide, FLAG-AF9, single point | Protein AF-9 (Homo sapiens), P42568 | inhibition, % at 10 µM | 0.47% of 350,000 active;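 active = every replicate reaching a set inhibition limit, whatever the replicate mean, cut at about 25% in these data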;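 also: 0% = plate neutral control median and 100% = total signal loss; the record names both 10 and 1 µM as test concentration; the first replicate is given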
Target sequence (P42568 whole entry, looked up): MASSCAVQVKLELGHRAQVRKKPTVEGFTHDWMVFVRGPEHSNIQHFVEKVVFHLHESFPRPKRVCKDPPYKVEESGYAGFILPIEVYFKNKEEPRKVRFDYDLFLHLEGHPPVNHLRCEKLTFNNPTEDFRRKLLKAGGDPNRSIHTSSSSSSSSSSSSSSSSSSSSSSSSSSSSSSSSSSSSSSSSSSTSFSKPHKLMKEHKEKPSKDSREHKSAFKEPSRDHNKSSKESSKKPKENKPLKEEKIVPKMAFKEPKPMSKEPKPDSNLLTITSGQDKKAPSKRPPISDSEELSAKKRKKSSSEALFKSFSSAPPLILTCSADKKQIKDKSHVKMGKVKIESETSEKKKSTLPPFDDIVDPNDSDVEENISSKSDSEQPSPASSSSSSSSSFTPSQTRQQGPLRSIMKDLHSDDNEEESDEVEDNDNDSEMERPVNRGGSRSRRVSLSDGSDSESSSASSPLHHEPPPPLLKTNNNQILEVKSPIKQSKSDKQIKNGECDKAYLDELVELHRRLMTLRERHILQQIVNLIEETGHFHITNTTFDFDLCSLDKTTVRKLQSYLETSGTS
A1 inh: caspase 3/7 activation in MEF A1-2A-BIM cells, primary screen, A1 inhibitor project, cell-based, luminescence, HTS | AID 2462, 2010 | 0.066% of 330,000 active | caspase activation, % (test concentration not listed) | Caspase-Glo 3/7 luminescence, 3 h; percent of clofoctol response, vehicle zero;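 active = over half of replicate activation scores above 10%, or exactly half above 10 with the replicate mean above 10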;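 also: wells of about 30 µL received 50 nL stock; many hits fall short of the cut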
rRNA inh HTS OD600: further read-out of rRNA inh HTS, marked with its call; OD600 change, %; measured here: OD600 growth;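 optical density of the mix in the first replicate; 0 = DMSO median and -100 = no signal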
rRNA inh HTS RFP: recorded beside rRNA inh HTS, whose call it bears; RFP signal change, %; measured here: RFP humanized mutant strains;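 first replicate; 0 = DMSO median and -100 = no signal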
* marks the source's active call; other numbers are inactive results; i = inactive; / = no result given; & = joins results of further samples. The list is partial, so the mix of outcomes need not match the whole.

item | molecule | UCH37 inh | Ecoli growth | Beta cell apopt | FGF22 binding | rRNA inh HTS | rRNA inh HTS OD600 | rRNA inh HTS RFP | T cruzi inh | MLL AF4-AF9 inh | A1 inh
1 | O=C(Nc1ccccc1C(F)(F)F)c1ncn[nH]1 | 3.9 | 0.663 | -8.6 | i | 8.8 | 5.6 | -3.0 | -4.6 | 2.7 | 0.6
2 | COc1ccccc1-c1cc(C(=O)Nc2cccnc2)no1 | 2.7 | 0.65 | 9.4 | / | / | / | / | -49.1 | / | -4.3
3 | c1ccc(CSC2=NNC(c3ccccn3)S2)cc1 (stereo not given) | 7.3 | 0.669 | 51.9 | i | 0.7 | 12.4 | 1.3 | 63.3* | -1.0 | -1.0
4 | CCOc1cccc(CNCCSc2nnnn2C)c1 | 1.3 | 0.658 | -8.9 | i | 3.8 | 3.2 | 1.7 | -9.5 | -1.6 | -0.2
5 | CNC(=O)c1ccc(-n2nc(C)cc2-c2ccccc2)cc1 | 1.7 | 0.675 | -2.3 | / | / | / | / | 15.4 | / | 1.2
6 | Cc1ccccc1-c1cc2nc(C)c(C)c(=O)n2[nH]1 | -9.2 | 0.622 | -0.7 | i | 16.0 | 9.9 | 2.8 | 34.1 | -0.8 | -0.6
7 | O=C(COC(=O)c1ccc(N2CCCC2=O)cc1)Nc1ccccc1 | 2.9 | 0.638 | -6.0 | i | 9.1 | 6.2 | -4.6 | / | 2.4 | 0.2
8 | Cc1oc(C(C)(C)C)cc1C(=O)N1CCN(C(c2ccccc2)c2ccccc2)CC1 | 3.6 | 0.658 | 13.5 | i | 9.6 | 7.7 | 2.1 | / | 0.2 | 0.7
9 | O=S(=O)(Cc1ccc(Cl)cc1)N1CCCCCC1 | 0.3 | 0.716 | / | i | 0.1 | 0.3 | 0.6 | -2.6 | -0.7 | 0.1
10 | COc1cccc(-c2nc(CS(=O)(=O)CC(=O)NC3CC3)c(C)o2)c1 | 0.2 | 0.676 | -6.5 | i | 3.9 | -4.5 | 0.8 | -0.8 | -5.8 | 1.0
11 | COc1ccc2nc(SCC(C)=O)c(C#N)cc2c1 | 1.9 | 0.714 | 25.0 | / | / | / | / | 19.4 | / | -5.3
12 | COCCN(C(=O)Cc1cccs1)c1nnc(-c2cccnc2)s1 | 1.4 | 0.656 | -1.0 | / | / | / | / | -11.9 | / | 1.8
13 | CCOC(=O)CSc1cc(C(F)(F)F)nc(-c2ccccn2)n1 | 0.6 | 0.715 | -5.1 | / | 0.8 | -0.2 | -0.7 | -9.0 | / | -0.3
14 | Cc1cccc(-n2ncc3c2CCCC3NC(=O)C2(C(N)=O)CC2)c1C (stereo not given) | 0.8 | 0.659 | 56.9 | i | 10.3 | 11.2 | 1.5 | -33.0 | -2.0 | 0.3
15 | COc1cc(CCC(=O)OCC(=O)Nc2cccc(S(=O)(=O)N(C)C)c2)cc(OC)c1OC | 1.2 | 0.685 | -3.2 | i | / | / | / | -24.1 | -1.0 | 0.7
16 | C/C(Cc1ccccc1)=N\NC(=O)CNC(=O)Cc1ccccc1 | / | / | 3.6 | i | 14.0 | 9.0 | 1.4 | 3.3 | / | 1.3
17 | CC1CCCCN1C(=O)COC(=O)c1ccc2c(c1)C(=O)N(Cc1ccco1)C2=O (stereo not given) | 0.4 | 0.64 | 0.4 | i | / | / | / | / | 1.7 | 0.3
18 | CC(=O)Nc1ccc(C(=O)OCC(=O)N2CCCC2)cc1 | 6.4 | 0.639 | -0.4 | i | 7.2 | 9.6 | -2.2 | -10.0 | -2.2 | -1.3
19 | COC(=O)c1sccc1NC(=O)CSCCc1ccccn1 | 4.5 | 0.684 | -1.0 | i | -5.4 | -4.6 | -11.5 | -3.7 | 2.7 | -0.4
20 | COc1ccc(C2CC(c3ccccc3)=NN2C(=O)COC(=O)c2nc3nc(C)cc(C)n3n2)cc1 (stereo not given) | 1.4 | 0.672 | -2.8 | / | -16.4 | -6.2 | -0.1 | 70.1* | 11.7 | -0.2
21 | CCc1nc2ccc(C(=O)NCc3ccc(C)o3)cc2nc1CC | 5.9 | 0.66 | -3.6 | i | -9.9 | -19.1 | -1.0 | 7.7 | -4.5 | -1.9
22 | Cc1ccc(NNC(=O)c2cc(C(C)(C)C)nn2Cc2ccccc2)cc1 | 3.0 | 0.625 | 7.4 | i | -12.4 | -7.6 | -2.8 | 25.8 | / | -0.5
23 | O=C(O)CCCC(=O)N1CCN(c2cccc(Cl)c2)CC1 | -1.2 | 0.748 | -4.9 | / | / | / | / | -18.4 | / | -0.2
24 | Cn1c(SCC(=O)NC2CCCCC2)nnc1-c1ccccc1O | 0.0 | 0.742 | -1.5 | i | 0.7 | 3.7 | -6.0 | -2.2 | 0.2 | 0.5
25 | CCOC(=O)COc1ccc(S(=O)(=O)NC2CC2)cc1 | 0.6 | 0.638 | -0.6 | i | 5.1 | 11.9 | 2.4 | -4.9 | 2.3 | -0.2
26 | COc1ccc(NC(=O)/C=C/c2ccc(C)o2)cc1S(=O)(=O)N1CCOCC1 | 8.5 | 0.66 | 1.8 | i | 15.4 | 14.4 | 5.3 | -25.2 | -1.9 | -0.6
27 | COc1cccc(CNC(=O)COC(=O)CNC(=O)c2ccc(-c3ccccc3)cc2)c1 | 0.9 | 0.683 | / | i | 4.6 | 16.1 | -1.5 | / | -7.1 | /
28 | N/C(COc1ccc(Cl)cc1)=N\NS(=O)(=O)c1ccccc1 | 2.7 | 0.682 | -6.2 | / | / | / | / | -5.9 | / | -1.4
29 | CCN(CC)CCNC1=NCCn2c1cc1cc(OC)ccc12 | -45.4 | 0.633 | 6.4 | / | / | / | / | 49.9 | / | 0.3
30 | OCCNc1nc(Nc2ccccc2)nc(Nc2ccccc2)n1 | 3.2 | 0.777 | 2.3 | / | / | / | / | 2.6 | / | -0.6

item | molecule | UCH37 inh | Ecoli growth | Beta cell apopt | FGF22 binding | rRNA inh HTS | rRNA inh HTS OD600 | rRNA inh HTS RFP | T cruzi inh | MLL AF4-AF9 inh | A1 inh
31 | Cc1ccnc(SCc2cn3c(C)cccc3n2)n1 | 4.2 | 0.689 | -2.9 | i | -9.7 | -10.3 | 1.4 | -10.8 | -2.8 | 0.5
32 | COc1ccc(-c2csc3ncn(-c4ccc(C)cc4)c(=O)c23)cc1OC | 4.4 | 0.711 | 3.7 | i | -22.7* | -11.0* | -1.8* | 18.6 | 2.0 | 0.8
33 | COc1ccc2c(c1)CCC(C)N2S(=O)(=O)c1ccc(C2CNC(=O)C2)cc1 (stereo not given) | 0.0 | 0.661 | 3.6 | / | -6.4 | -7.9 | -3.9 | 7.8 | -10.7 | 0.6
34 | CN(C)CCNC(=O)c1c(O)c2c([nH]c1=O)CCCC2 | 2.2 | 0.691 | -9.1 | i | 5.3 | -0.2 | -10.0 | 5.4 | -36.7 | 0.5
35 | CCOc1ccc(NC(=O)CCNS(=O)(=O)c2cccs2)cc1 | -0.7 | 0.636 | 4.6 | / | / | / | / | 3.0 | / | -0.3
36 | CC1NC(=O)NC1CCCCCC(=O)Nc1ccc(F)cc1 (stereo not given) | 2.1 | 0.75 | -3.0 | i | 5.8 | 7.1 | -3.1 | -17.6 | 92.8* | 0.0
37 | COCCOc1nc2c(c(=O)n(C)c(=O)n2C)n1CCc1ccccc1 | 1.4 | 0.71 | -1.1 | / | / | / | / | 10.1 | / | -0.2
38 | Nc1nc(NCc2ccccc2)nc(Nc2ccc(F)cc2)c1[N+](=O)[O-] | 7.0 | 0.711 | -5.1 | / | / | / | / | -1.3 | / | 0.0
39 | COc1cc(C2NC(=O)NC(C)=C2C(=O)OC2CCC(C)CC2)ccc1O (stereo not given) | 4.6 | 0.626 | -6.4 | i | 2.9 | 1.6 | 3.8 | 4.7 | 3.0 | 0.0
40 | Cc1ccc(NC(=O)CN2CC(C)SC2=NC2CCCCC2)cc1 (stereo not given) | 0.1&-1.2 | 0.624&0.652 | -3.0 | i | -1.8 | -5.2 | 3.6 | / | 1.9 | -0.2
41 | COC(=O)CCC(=O)OC1(C)C(=O)C2=CN(c3ccc(OC)cc3)C(c3ccc(OC)cc3)=CC2=C(Br)C1=O (stereo not given) | 0.6 | / | -4.4 | / | / | / | / | 33.5 | / | 0.4
42 | Cc1ccnn1CC(=O)N/N=C/c1cn[nH]c1-c1ccccc1 | / | / | -1.0 | i | 14.8 | 12.3 | 3.8 | 0.2 | -4.1 | 0.0
43 | CCCn1c(SCC(=O)N2CCCC2=O)nc2ccccc2c1=O | 2.5 | 0.664 | / | i | -6.8 | -11.4 | -0.7 | / | -2.0 | /
44 | Cc1ccc(C(CNS(=O)(=O)c2ccccc2)N2CCN(C)CC2)cc1 (stereo not given) | -0.5 | 0.702 | -0.3 | i | 4.5 | -2.2 | 0.7 | -13.3 | -7.3 | -0.4
45 | Cc1ccc(S(=O)(=O)ON2C(=O)c3cccc4cccc(c34)C2=O)cc1 | -18.7 | 0.714 | -1.6 | / | 15.7 | 15.1 | -2.3 | -22.1 | -0.7 | -0.7
46 | CCO/C=C1/C(=O)N(c2ccc(OC)cc2)C(=O)c2ccccc21 | 14.3 | 0.689 | 5.2 | i | 11.8 | 21.2 | 1.5 | -4.1 | -0.4 | -0.8
47 | NS(=O)(=O)c1cccc(C(=O)OCC(=O)NC2CCCc3ccccc32)c1 (stereo not given) | 0.8 | 0.699 | 1.5 | i | 2.2 | 8.0 | 1.5 | / | -0.4 | -0.4
48 | Cc1ccc(C(=O)Nc2ccc3c(c2)CCC3)cc1S(=O)(=O)N1CCOCC1 | 0.6 | 0.731 | -0.8 | i | -28.8 | -25.3 | -2.4 | 1.4 | 3.8 | -0.8
49 | Cc1oc2c(C)c3oc(=O)c(CCC(=O)NCCCN4CCOCC4)c(C)c3cc2c1C | -36.4 | 0.755 | -2.4 | i | -5.4 | 1.0 | 5.7 | 12.0 | -0.6 | 0.5
50 | CCC(C)[C@H](NC(=O)N1CC(=O)Nc2ccccc21)C(=O)Nc1nccs1 (stereo not given in full) | -0.8 | 0.652 | -1.1 | i | 9.0 | 9.2 | -4.6 | -3.0 | -0.4 | -0.3
51 | CCCCCc1ccc(-c2cn(CN3C(=O)c4ccccc4C3=O)nn2)cc1 | 4.7 | 0.698 | 96.4* | i | 15.4 | 6.9 | 3.6 | 0.1 | -0.2 | -1.3
52 | CCCc1nnc(NC(=O)CCC(=O)N2CCCCC2)s1 | 4.2 | 0.746 | -2.3 | i | 6.1 | 11.5 | -1.6 | 0.8 | -1.5 | 0.6
53 | CCOC(=O)c1[nH]c2cc(OC)c(OC)cc2c1NC(=O)CN(C)C1CCCCC1 | -80.7 | 0.703 | -4.5 | / | / | / | / | 20.3 | / | 1.2
54 | COc1ccccc1-n1c(=S)[nH]c2c(sc(=S)n2-c2ccccc2C)c1=O | 2.5 | 0.664 | -3.6 | i | 9.9 | 2.7 | -3.5 | 3.2 | 0.8 | 1.3
